Assay outcomes deposited in PubChem BioAssay by Broad Institute.
BJeLR viability: BJeLR cell viability loss, primary screen, luminescence, CellTiterGlo ATP; viability loss activity score, % (concentration not given with the values); BJeLR fibroblasts viability, 48 h; HRASV12, hTERT and SV40 LT/ST transformed; AID 2275, 2010; 30,000 compounds, 0.64% hits; in the data active = viability loss activity score above about 50%; about a fifth of its hits are not listed in these tables;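 also: higher score means fewer live cells and less ATP luminescence; stock transfer was 50 or 100 nL into about 30 µL; 0% = vehicle wells and 100% = a reference killing control; one replicate is shown; the record names a cut of 85%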
A1 inh: inducers of caspase activity in MEF A1-2A-BIM cells, primary screen, A1 inhibitor project, cell-based, CaspaseGlo luminescence. caspase-Glo luminescence, 3 h; percent of clofoctol signal, DMSO as zero. caspase activation, % (concentration not given with the values). 21,000 compounds, 0.51% hits;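 active = most replicate scores above 10, or exactly half above 10 with mean activity above 10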;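 also: effector caspase 3 and 7 activity cleaving a DEVD luciferin substrate; 50 nL library stock added to about 30 µL; numbers are from one replicate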
* marks the source's active call; other numbers are inactive results; nt = no result given. The list is partial, so the mix of outcomes need not match the whole.

SMILES	BJeLR viability	A1 inh
C[C@H](CO)N1C[C@H](C)[C@@H](CN(C)C(=O)Nc2ccc3c(c2)OCO3)Oc2ccc(NC(=O)CCC(F)(F)F)cc2C1=O	0.1	-0.1
Cc1occc1C(=O)C(C#N)=C(NCc1cccnc1)NCc1cccnc1	1.6	0.5
Cc1c(Br)c(C(F)(F)F)nn1CC(N)=O	4.5	-0.3
C[C@@H]1CN([C@@H](C)CO)C(=O)c2cccc(NS(C)(=O)=O)c2O[C@H]1CN(C)S(=O)(=O)c1cn(C)cn1	3.7	nt
Cc1cc(-c2ccccc2)nc2c1/C(=N\O)CC(C)(C)C2	-2.8	-0.4
COc1ccc(CN(C)C[C@H]2Oc3c(NC(=O)NC4CCCCC4)cccc3C(=O)N([C@@H](C)CO)C[C@@H]2C)cc1	-5.1	nt
C[C@@H]1CN([C@@H](C)CO)C(=O)c2cc(NC(=O)Cc3ccccc3)ccc2O[C@@H]1CN(C)Cc1ccc(Cl)c(Cl)c1	3.7	0.0
COc1cc(C)c2c(=O)c3c(O)cc(O)cc3oc2c1	1.8	0.2
C[C@@H]1CN([C@@H](C)CO)C(=O)c2cccc(NS(C)(=O)=O)c2O[C@H]1CN(C)S(=O)(=O)c1ccc(F)cc1	-0.8	nt
COc1ccc(-n2c(N)cc(=O)[nH]c2=O)cc1	-3.0	-0.6
O=C(NCCc1ccccc1)C1=CCN(S(=O)(=O)c2ccccc2)CC1	1.7	-0.3
CCOC(=O)c1cnn(CCOC(=O)c2ccc(C)cc2)c1NC(=O)c1ccc(C)cc1	-3.5	-0.7
C[C@H](CO)N1C[C@H](C)[C@H](CN(C)Cc2ccc(Cl)c(Cl)c2)Oc2ccc(NC(=O)NC3CCCCC3)cc2C1=O	-1.8	-0.3
CC12C(=O)N(CCC3=CCCCC3)C(=O)C1C(c1ccccc1)C=CC2c1ccccc1 (centres undefined)	1.6	1.2
COc1cc(CC(C)C(C)Cc2ccc(O)c(OC)c2)ccc1O (centres undefined)	118*	8.3
CC(C)NC(=O)Nc1ccc2c(c1)C(=O)N([C@@H](C)CO)C[C@H](C)[C@@H](CN(C)S(=O)(=O)c1cccs1)O2	-2.3	-0.1
C[C@@H]1CN([C@H](C)CO)C(=O)c2cc(NS(=O)(=O)c3cn(C)cn3)ccc2O[C@H]1CN(C)C(=O)Nc1ccc(F)cc1	-1.1	0.1
CCN=C1SC(C(N)=O)CC(=O)N1CC (centres undefined)	-2.1	0.5
C[C@@H]1CN([C@@H](C)CO)C(=O)c2cccc(NS(=O)(=O)c3ccccc3)c2O[C@H]1CN(C)C(=O)Nc1ccc2c(c1)OCO2	-1.4	nt
COc1ccc(CN(C)C[C@H]2Oc3ccc(NC(=O)Nc4ccc(C(F)(F)F)cc4)cc3C(=O)N([C@H](C)CO)C[C@H]2C)cc1	3.0	-0.6
COc1ccc(CCNc2ncnc3sc4c(c23)CCCC4)cc1	5.1	-1.6
CCOC(=O)c1c(N)sc2c1CCC(Sc1ccccc1)C2=O (centres undefined)	-2.9	-0.2
O=c1c2ccccc2nc(SCc2ccc(F)cc2)n1-c1ccccc1	0.1	-0.9
COc1cc(/C=C/c2ccc(OC)c(OC)c2)c(CC=C(C)C)c(OC)c1	-0.3	0.5
Cc1cccc2sc(NC(=O)c3ccc(COc4ccc5ccccc5c4)o3)nc12	1.2	nt
COC(=O)CSc1nnnn1-c1ccc(C(=O)OC)cc1	3.9	0.3
C[C@H](CO)N1C[C@H](C)[C@H](CN(C)C(=O)NC2CCCCC2)Oc2ccc(NS(=O)(=O)c3ccc(Cl)cc3)cc2C1=O	-1.5	0.8
O=C(CSc1n[nH]c(=O)n1C1CC1)c1ccc(N2CCOCC2)cc1	2.0	-0.4
CC(=O)OCC(CCn1cnc2cnc(N)nc21)COC(C)=O	-4.9	-0.3
Cc1ccc(S(=O)(=O)Nc2ccc3c(c2)C(=O)N([C@H](C)CO)C[C@H](C)[C@@H](CN(C)Cc2ccc(Oc4ccccc4)cc2)O3)cc1	0.9	0.7
Cc1ccc2oc(=O)c(-c3nc4ccccc4s3)cc2c1	6.8	-5.3
CC(=O)OC1CCC(C)(O)C2OC(CC1(C)O)C(C(C)C)C2OC(=O)/C=C/c1ccccc1 (centres undefined)	0.5	-0.5
NS(=O)(=O)c1ccc(CNC(=O)/C=C/c2ccc3c(c2)OCO3)cc1	0.0	1.0
CC(C)CCNc1cc(C(C)C)c(C#N)c2nc3ccccc3n12	4.6	-0.7
CCOC(=O)C1CCC(CNCc2ccc(Cl)cc2)CC1 (centres undefined)	-12	-0.1
C[C@@H]1CN([C@H](C)CO)C(=O)c2cccc(NC(=O)c3ccc(-c4nccs4)cc3)c2O[C@@H]1CN(C)Cc1ccc(Oc2ccccc2)cc1	8.8	nt
C[C@H]1CN([C@@H](C)CO)C(=O)c2cccc(NC(=O)Nc3ccc(C(F)(F)F)cc3)c2O[C@H]1CN(C)S(=O)(=O)c1cccs1	2.4	nt
Cc1ccc(-c2nnc(-n3cnc4cc(C)c(C)cc43)c3ccccc23)cc1	-3.6	-1.2
CC(=O)Nc1ccc(-c2cn3cccc(C)c3n2)cc1	1.0	-4.4
COc1ccc(S(=O)(=O)N(C)C[C@H]2Oc3ccc(NS(=O)(=O)c4ccc(Cl)cc4)cc3C(=O)N([C@@H](C)CO)C[C@@H]2C)cc1	3.0	0.7

Three structures already listed, sorted by number of heavy atoms, smallest number first.
SMILES	BJeLR viability	A1 inh
COC(=O)CSc1nnnn1-c1ccc(C(=O)OC)cc1	3.9	0.3
COc1cc(/C=C/c2ccc(OC)c(OC)c2)c(CC=C(C)C)c(OC)c1	-0.3	0.5
CC(=O)OC1CCC(C)(O)C2OC(CC1(C)O)C(C(C)C)C2OC(=O)/C=C/c1ccccc1 (centres undefined)	0.5	-0.5

The listing continues.
SMILES	BJeLR viability	A1 inh
CCN(CC)c1ccc(NC(=O)c2ccc(Cl)cc2)c(N(CC)CC)n1	4.4	-0.9
C[C@@H]1CN([C@@H](C)CO)C(=O)c2cc(NC(=O)Nc3ccc4c(c3)OCO4)ccc2O[C@@H]1CN(C)C(=O)Nc1cccc2ccccc12	-5.7	0.4
Cc1ccc(S(=O)(=O)Nc2cccc3c2O[C@@H](CN(C)C)[C@H](C)CN([C@H](C)CO)C3=O)cc1	-4.3	nt
C[C@H]1CN([C@@H](C)CO)C(=O)c2cccc(N(C)C)c2O[C@H]1CN(C)C(=O)Nc1ccc2c(c1)OCO2	-3.0	nt
C[C@H]1CN([C@@H](C)CO)C(=O)c2cc(NC(=O)Nc3ccc(F)cc3)ccc2O[C@H]1CN(C)C(=O)NC1CCCCC1	-3.8	0.1
COc1ccc(CSc2nnc3c4c5c(sc4nc(SC)n23)COC(C)(C)C5)cc1	4.6	nt
O=C1NC(=S)N/C1=C\c1ccco1	-8.9	0.2
O=C(c1cnn(-c2ccccc2)c1)c1ccccc1O	9.1	-8.1
CC(C)NC(=O)N(C)C[C@H]1Oc2c(NC(=O)c3ccncc3)cccc2C(=O)N([C@H](C)CO)C[C@H]1C	2.2	nt
COc1cc(CCNc2ccc3nnc(-c4ccccc4)n3n2)cc(OC)c1OC	-7.9	-0.3
O=C(COc1ccc2c(c1)C(=O)CC1(CCCCC1)O2)NCc1cccnc1	-7.6	nt
COc1ccc(S(=O)(=O)N(C)C[C@@H]2Oc3ccc(NC(=O)CCCCCC(=O)Nc4ccccc4N)cc3C(=O)N([C@H](C)CO)C[C@H]2C)cc1	2.4	nt
Cc1[nH]c(=O)[nH]c(=O)c1S(=O)(=O)N1CCCC(C(=O)NCc2ccc3c(c2)OCO3)C1 (centres undefined)	1.1	nt
COc1cc(Nc2nc(SCC(=O)c3ccc(O)c(O)c3)nc3ccccc23)cc(OC)c1	5.2	-0.1
CN(C)Cc1ccc(O)c(CN(C)C)n1	-2.6	-0.2
O=S(=O)(CCN(Cc1cccs1)C(=S)Nc1cccc(F)c1)c1ccc(Cl)cc1	-3.8	-0.4
Cc1ccc(S(=O)(=O)N(C)C[C@@H]2Oc3c(NC(=O)Nc4ccc(C(F)(F)F)cc4)cccc3C(=O)N([C@H](C)CO)C[C@H]2C)cc1	-0.7	nt
C=C1CCC2[C@](C)(CCC[C@]2(C)C(=O)O)[C@H]1CC/C(C)=C/C(=O)OC (some centres undefined)	-2.4	1.1
O=C1CCC(=O)N1CN(C(=O)C(F)(F)F)c1ccccc1	-12	-0.2
c1coc(C2Nc3ccccc3-c3nc4ccccc4n32)c1 (centres undefined)	2.9	nt
C[C@@H]1CN([C@H](C)CO)C(=O)c2cc(NC(=O)CCC(F)(F)F)ccc2O[C@H]1CN(C)C(=O)Nc1ccc(F)cc1	-1.0	-0.2
C[C@@H]1CN([C@@H](C)CO)C(=O)c2cccc(NS(=O)(=O)c3cn(C)cn3)c2O[C@H]1CN(C)CC1CC1	18	nt
C[C@@H]1CN([C@@H](C)CO)C(=O)c2cccc(NS(=O)(=O)c3cccs3)c2O[C@@H]1CN(C)S(=O)(=O)c1cccs1	2.1	nt
C[C@@H]1CN([C@H](C)CO)C(=O)c2cc(NC(=O)CCN3CCOCC3)ccc2O[C@@H]1CN(C)C	2.5	-0.9
CCOc1ccc(C(=O)Nc2ccc(NC(=O)c3ccccc3)c(C)c2)cc1Br	3.7	1.6
C[C@H]1CN([C@@H](C)CO)C(=O)c2cc(NC(=O)C3CCCCC3)ccc2O[C@@H]1CN(C)S(=O)(=O)c1ccc(F)cc1	-3.7	1.1
C[C@@H]1CN([C@@H](C)CO)C(=O)c2cccc(NS(=O)(=O)c3ccc(Cl)cc3)c2O[C@H]1CN(C)CC1CC1	-4.8	nt
COc1ccc(NC(=O)N(C)C[C@@H]2Oc3ccc(NC(=O)C4CC4)cc3C(=O)N([C@H](C)CO)C[C@H]2C)cc1	0.8	-0.2
C[C@H]1CN([C@@H](C)CO)C(=O)c2cc(NC(=O)c3ccncc3)ccc2O[C@@H]1CN(C)S(=O)(=O)c1ccc(Cl)cc1	-9.4	1.2
CCOc1cccc(C(=O)Nc2cc3nn(-c4ccccc4)nc3cc2C)c1	3.7	-0.4
Cc1noc(C)c1S(=O)(=O)Nc1ccc2c(c1)C(=O)N([C@@H](C)CO)C[C@@H](C)[C@H](CN(C)Cc1ccc3c(c1)OCO3)O2	3.0	1.2
COc1ccc(NC(=O)N(C)C[C@H]2Oc3ccc(NC(=O)Nc4cccc5ccccc45)cc3C(=O)N([C@@H](C)CO)C[C@H]2C)cc1	-6.4	0.1
C[C@H](CO)N1C[C@H](C)[C@H](CN(C)S(=O)(=O)c2ccccc2)Oc2ccc(NC(=O)C3CCCCC3)cc2C1=O	-3.5	0.4
O=C1C(C=NCCc2c[nH]c3ccccc23)=C(O)c2ccccc21	-15	-0.1
C[C@H]1CN([C@@H](C)CO)C(=O)c2cccc(NS(=O)(=O)c3ccccc3)c2O[C@H]1CN(C)Cc1ccccc1	-3.0	nt
O=C(NCCCN1CCOCC1)NC1(c2ccccc2)CC1	1.6	0.6
C=CCNc1ncnc2c1sc1nc(CCCC)c3c(c12)CCCC3	3.3	nt
CCC1=Nc2cc(C(=O)NCCN3CCCCCC3)ccc2Sc2ccc(C)cc21	5.1	1.1
C[C@@H]1CN([C@H](C)CO)C(=O)c2cc(NC(=O)Nc3ccc4c(c3)OCO4)ccc2O[C@H]1CN(C)Cc1ccc(C(=O)O)cc1	-4.7	-0.2
Cc1ccc(S(=O)(=O)Nc2ccc3c(c2)C(=O)N([C@H](C)CO)C[C@@H](C)[C@@H](CN(C)C(=O)Nc2ccc(F)cc2)O3)cc1	-4.3	0.4

Continued (two carried over from the part before).
SMILES	BJeLR viability	A1 inh
C[C@@H]1CN([C@H](C)CO)C(=O)c2cc(NC(=O)Nc3ccc4c(c3)OCO4)ccc2O[C@H]1CN(C)Cc1ccc(C(=O)O)cc1	-4.7	-0.2
Cc1ccc(S(=O)(=O)Nc2ccc3c(c2)C(=O)N([C@H](C)CO)C[C@@H](C)[C@@H](CN(C)C(=O)Nc2ccc(F)cc2)O3)cc1	-4.3	0.4
CC(C)NC(=O)N(C)C[C@H]1Oc2ccc(NC(=O)NC3CCCCC3)cc2C(=O)N([C@H](C)CO)C[C@H]1C	-0.7	0.3
OC(CN1CCN(c2cccc(Cl)c2)CC1)Cn1c2ccccc2c2ccccc21 (centres undefined)	-9.7	-0.4
CCCN(CCC)C(=O)c1ccccc1Cl	0.1	-0.1
CNC[C@H]1Oc2ccc(NS(=O)(=O)c3ccc(F)cc3)cc2C(=O)N([C@H](C)CO)C[C@@H]1C	-1.0	-0.5
CCCn1cc(SCC(=O)N2N=C(c3cccs3)CC2c2ccc(OC)cc2)c2ccccc21 (centres undefined)	-1.4	0.5
C[C@@H]1CN([C@@H](C)CO)C(=O)c2cccc(NC(=O)C3CCOCC3)c2O[C@H]1CN(C)C(=O)Nc1ccc(C(F)(F)F)cc1	0.8	nt
C[C@H]1CN([C@@H](C)CO)C(=O)c2cc(NS(=O)(=O)c3ccccc3)ccc2O[C@@H]1CN(C)C(=O)Nc1ccccc1	2.2	0.0
C[C@@H]1CN([C@@H](C)CO)C(=O)c2cccc(NS(=O)(=O)c3cn(C)cn3)c2O[C@H]1CN(C)C(=O)Nc1ccc2c(c1)OCO2	-2.8	nt

Complete entries, quoted from the list:
CC12C(=O)N(CCC3=CCCCC3)C(=O)C1C(c1ccccc1)C=CC2c1ccccc1 (centres undefined) across the screens: BJeLR viability = 1.6; A1 inh = 1.2
CCN=C1SC(C(N)=O)CC(=O)N1CC (centres undefined) across the screens: BJeLR viability = -2.1; A1 inh = 0.5
COc1ccc(CN(C)C[C@H]2Oc3ccc(NC(=O)Nc4ccc(C(F)(F)F)cc4)cc3C(=O)N([C@H](C)CO)C[C@H]2C)cc1 across the screens: BJeLR viability = 3.0; A1 inh = -0.6
